Screening results as filed in PubChem.
Sfp PPTase inh: blocks B. subtilis Sfp PPTase activity. Q9F4F7. Biochemical Sfp PPTase activity, qHTS. Potency, µM, for inactives: max response, negative = inhibition, hits mostly inhibitors. actives 3.5% (n = 310,000). AID 1490; active = well fitted inhibition curve with a large enough effect; inconclusive = small, poorly fitted or top-dose-only effect, or another doubt; inactive = no such curve, though single readings can be large or run the other way;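 note: the enzyme is Sfp with the accession as filed and its product quenches rhodamine fluorescence; potency is the fitted concentration of half-maximal effect; 0% = enzyme reaction without inhibitor and -100% = no enzyme wells; top concentration of the series not given in the record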
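Buffer: 50 mM Hepes-Na pH 7.6, 10 mM MgCl2, 0.01% Nonidet P-40, 0.01% BSA. Enzyme 15 nM, pre-exposed to compound 15 min; substrates then added and fluorescence change tracked over 30 min.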
Menin MLL FP FL: inhibitors of human menin-MLL interaction, wild-type MLL peptide; Fluorescence polarization, fluorescein-MLL peptide displacement from menin; FP activity change, % at 61.4 µM; 290,000 tested, under 10 active; inconclusive = falling polarisation curve, or a change in total fluorescence; inactive = total fluorescence flat and polarisation flat or rising; no compound was filed as active; the % refers to the polarisation; negative = inhibition;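 note: % of control where 0% means no effect; inhibitors lower the polarisation; unlabelled MLL peptide was the positive control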
gsp antagonist: antagonizes gsp, the McCune-Albright syndrome mutation; gsp-mutant cells, cAMP HTRF, 30 min; control for the full effect not named in the record; Potency, µM (doses to about 76.9 µM), for inactives: at the top dose activity change, negative = inhibition, actives largely listed as inhibitors; actives 0.4% (n = 340,000); active = falling curve of any shape with a large fitted effect; inconclusive = falling curve, mostly with a smaller effect; inactive = flat or rising curve; cell line not stated here;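 note: intracellular cAMP measured with PDE inhibitor Ro 20-1724 present during compound exposure; potency is the fitted concentration of half-maximal effect; % is set by controls: 0 for no effect and ±100 for the full control effect; nearly all actives have a fitted effect of over 65% in size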
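HTRF cAMP read-out (cAMP-d2 plus anti-cAMP antibody-K in lysis buffer, 30 min RT). Before lysis, cells are exposed to compounds with […] for 30 min at 37C in DPBS containing Ca/Mg, BSA and Tween 20.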
PINK1 expr mod: changes PINK1 expression | PINK1 immunofluorescence, high-content cytometry, 24 h | Potency, µM (highest dose often 76.6 µM), inactives show at the highest dose activation (PINK1 increase), usual class: activators | actives 0.2% (n = 410,000); active = well fitted activation curve with a large enough effect; inconclusive = small, poorly fitted or top-dose-only effect; inactive = flat fitted curve, though single readings scatter; cell line not stated here;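 note: potency is the fitted concentration of half-maximal effect; % of control where 0% means no effect; nearly all actives have a fitted effect of over 65% in size; a mitochondrial uncoupler was the plate control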
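Compound titrations (5 concentrations, 24 h) on a stable cell line; DMSO and CCCP controls. Endpoint: fixed-cell PINK1 immunofluorescence with mitochondrial, cell and nuclear markers, scanned by microplate cytometer.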
D2 ag: human D2 receptor agonism in beta-arrestin assay | DiscoveRx PathHunter D2 beta-arrestin, luminescence, 90 min; 100% = 57 uM dopamine signal | activation, % (concentration not given with the values) | actives 0.084% (n = 360,000) | AID 624465; in the data active = activation above about 40%; inconclusive = about 15% to 40%; inactive = below about 15%; note: compound concentration not given in the record; the text of the record calls up to 30% inactive
Target sequence (P14416 whole entry, looked up): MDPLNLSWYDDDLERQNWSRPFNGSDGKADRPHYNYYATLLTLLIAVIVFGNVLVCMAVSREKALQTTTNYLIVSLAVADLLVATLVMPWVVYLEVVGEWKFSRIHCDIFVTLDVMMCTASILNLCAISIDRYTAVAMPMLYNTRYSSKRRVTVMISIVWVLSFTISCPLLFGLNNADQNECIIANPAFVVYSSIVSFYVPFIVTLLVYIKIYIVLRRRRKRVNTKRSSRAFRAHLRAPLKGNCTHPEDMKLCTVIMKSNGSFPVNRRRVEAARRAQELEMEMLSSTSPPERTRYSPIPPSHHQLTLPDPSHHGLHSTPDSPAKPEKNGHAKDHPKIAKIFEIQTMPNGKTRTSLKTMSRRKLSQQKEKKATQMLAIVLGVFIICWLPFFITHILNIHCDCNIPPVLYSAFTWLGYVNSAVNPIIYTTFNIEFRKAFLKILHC
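DiscoveRx PathHunter D2 beta-arrestin cells (2,100/well) attached overnight, then compound-stimulated 90 min at 37 C in HBSS/10 mM HEPES/0.1% Tween-20 buffer; beta-galactosidase complementation read by luminescence after 1 h at ambient temperature. Dopamine 57 uM final (EC100) as control.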
ClpP mod: qHTS Assay for Activators of ClpP; purified B. subtilis ClpP, FRET peptide cleavage, 20 min; actives 1.9% (n = 340,000); ATP-dependent Clp protease proteolytic subunit (Bacillus subtilis (strain 168)), P80244; Potency, µM (highest dose often 57.5 µM), for inactives: at the highest dose activity change, negative = active; AID 651965, 2013; active = well fitted falling curve with a large enough effect; inconclusive = small, poorly fitted or top-dose-only effect; inactive = no such curve, though single readings can be large or run the other way; note: potency is the fitted concentration of half-maximal effect; the source files actives as falling curves though it sought activators and does not explain the sign; nearly all actives have a fitted effect of over 65% in size; many hits overshoot -100%
Target sequence (P80244 whole entry, looked up): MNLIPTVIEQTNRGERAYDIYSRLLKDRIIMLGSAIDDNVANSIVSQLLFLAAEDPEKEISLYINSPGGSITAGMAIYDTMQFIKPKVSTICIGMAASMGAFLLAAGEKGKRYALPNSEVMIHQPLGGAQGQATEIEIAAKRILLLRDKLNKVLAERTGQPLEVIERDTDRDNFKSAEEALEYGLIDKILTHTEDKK
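FRET quenching reversal measured ClpP activation: 10 microg/mL B. subtilis ClpP at pH 8 with the FRET-FV decapeptide, read at 430 nm after 320 nm excitation. The 20-min minus 0-min signal was scaled between DMSO/no-enzyme wells and ADEP (5.8 microM final).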
gsp ag: agonists of gsp mutant (McCune-Albright syndrome). actives 0.13% (n = 340,000). gsp mutant cells, cAMP HTRF, 30 min; control for the full effect not named in the record. AID 624287. Potency, µM (doses to about 76.9 µM), for inactives: top-dose activation (cAMP increase), most hits filed as activators; active = well fitted activation curve with a large enough effect; inconclusive = small, poorly fitted or top-dose-only effect, or another doubt; inactive = no such curve, though single readings can be large or run the other way; cell line not stated here;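 note: phosphodiesterase inhibitor Ro 20-1724 added with compounds to block cAMP breakdown; potency is the fitted concentration of half-maximal effect; nearly all actives have a fitted effect of over 60% in size; about a fifth of the inactives were tested at one dose only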
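Cells in DMEM/10% FBS with G418 were pretreated with compounds in DMSO plus […] (300 uM stock) for 30 min at 37C. cAMP was measured by HTRF (cAMP-d2 plus anti-cAMP antibody-K) after 30 min at room temperature.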
Starred values were filed as active, the others as inactive; ? = inconclusive; · = no result given; & = joins results of further samples; [ ] = another dose, or the depositor's remark.

SMILES	Sfp PPTase inh	Menin MLL FP FL	gsp antagonist	PINK1 expr mod	D2 ag	ClpP mod	gsp ag
Cc1cc2nccc(-c3cccnc3)n2n1	21%	-0.2	1%	1.9%	-6.3	·	-3%[15.4 µM]
CN1CCN(c2ncnc3ccc(-c4cccnc4)cc23)CC1	27%	-2.5	·	-0.8%	·	·	·
CCOc1ccc2nc3c(cc2c1)CN(CCCO)C(=NCCOC)S3	-26%	2.7	?	-1.1%	1.1	0.8%	3%
COc1ccccc1CNC(=O)COC(=O)c1sc(C)nc1C	·	·	0%	4.5%	0.9	1.1%	-15%
Cc1ccc(S(=O)(=O)N2CCOCC2)cc1NC(=O)Nc1ccc([N+](=O)[O-])cc1	·	·	4%	2.2%	1.6	3.1%	-37%[inhibitor]
Cc1ccc(NC(=O)Nc2ccccc2)cc1[N+](=O)[O-]	-10%	-3.1	4%	0.6%	-6.9	1.1%	-7%
COC(C/C=C\[C@@H](O)COCc1ccccc1)OC	8%	1.8	5%	1.2%	1.7	-6.3%	·
CCS(=O)(=O)N1CCCC(C(=O)NCc2cccc(OC)c2)C1 (centres undefined)	14%	2.4	1%	-1.2%	-1.1	0.6%	8%
Cc1ccc2nc(NC(=O)Cn3nc(C)c([N+](=O)[O-])c3C)sc2c1	-5%	6.6	3%	2.3%	-0.5	-1.8%	-22%
COC(=O)[C@@]1(Cc2ccc(F)cc2)[C@H]2c3cc(C(=O)N(C)C)n(CCN4CCOCC4)c3C[C@H]2CN1C(=O)c1ccccc1	0%	-2.0	·	0.8%	·	-1.5%	·
CC[C@@H]1C(c2cccc(Cl)c2)=NN(c2ccc(Br)cc2)[C@H]1C(=O)N1CCOC1=O	17%	3.9	-10%	12%	0.0	4.6%	·
Cc1ccc(CNc2oc(-c3ccco3)nc2C#N)cc1	-4%	5.8	10%	0.5%	-1.8	16µM*	16%[15.4 µM]
O=C(Nc1ccc(Cl)c(Cl)c1)c1ccc2c(c1)OCO2	-1%	7.3	-9%	3.8%	4.3	·	-40%
CC1CCC(=C(C#N)c2nc(-c3cc4ccccc4oc3=O)cs2)CC1 (centres undefined)	3%	0.5	-1%	2.1%	-1.5	3.5µM*	-3%
NS(=O)(=O)c1ccc(CNc2ccc3ccccc3n2)cc1	-2%	2.3	4%	0.6%	-3.8	·	12%[15.4 µM]

More results:
SMILES	Sfp PPTase inh	Menin MLL FP FL	gsp antagonist	PINK1 expr mod	D2 ag	ClpP mod	gsp ag
CCN1CCN(C(c2cccs2)C(C)NC(=O)c2ccco2)CC1 (centres undefined)	10%	0.8	17%	-4.5%[38.3 µM]	2.1	1.6%	12%
Cc1cc(NC(=O)CSc2nc(Cc3ccccc3)c(C)[nH]2)no1	14%	-6.2	-6%	-0.6%	-4.4	·	7%[15.4 µM]
COc1ccc(CCNCc2cc(C)n(-c3ccc(OC)cc3)c2C)cc1	?	·	5%	4.0%	3.0	0.1%	37%
O=C(c1ccc(Cl)nc1)N1CCN(S(=O)(=O)c2ccccc2)CC1	6%	2.2	2%	-0.2%	0.0	-0.3%	9%
C/C(=N\OCC(=O)Nc1nc2ccccc2s1)c1ccccc1	12%	·	12%	8.5%	-5.0	0.5%	-12%
COc1ccc(C2c3c(ncn(CCN4CCOCC4)c3=N)Oc3ccc4ccccc4c32)cc1OC (centres undefined)	-50%	2.1	19%	1.0%	8.5	-3.2%&0.2%	26%
CCn1cc(/C=N\NC(=O)c2ccc(Cl)cc2)cn1	19%	6.9	5%	2.3%	-3.2	0.2%	-2%[15.4 µM]
O=C(CNC(=O)c1ccco1)NCC(=O)OCc1cccc(C(=O)Oc2ccccc2)c1	17%	0.7	?	-1.2%[38.3 µM]	1.7	0.1%	1%
CNc1nc(C23CC4CC(CC(C4)C2)C3)cs1	-25%	-1.1	-4%	18%	-3.3	1.6%	-9%
Cc1cccn2c(=O)c(C=C(C#N)C#N)c(N3CCN(c4cccc(Cl)c4)CC3)nc12	10%	-20	-8%	1.8%	-4.0	·	-1%
CCc1ccc(NC(=O)Cn2nnc(C(=O)NCc3cccs3)c2N)cc1	-4%	0.3	2%	-0.8%	3.2	1.6%	-51%[inhibitor]
O=C(CN1C(=O)NC2(CCCC2)C1=O)Nc1cc(S(=O)(=O)N2CCCCC2)ccc1Cl	·	·	0%	5.2%	-2.9	2.0%	0%
O=C(NNC1OC(CO)C(O)C(O)C1O)c1cccnc1 (centres undefined)	-7%	0.4	·	-1.4%	2.8	·	-6%[15.4 µM]
CCOc1ccc(S(=O)(=O)N2CCC(C(=O)N3CCCC3)CC2)cc1C	12%	0.3	-1%	0.7%	-4.8	·	0%[15.4 µM]
Cc1nc(CNC(=O)c2cc(COc3c(F)cccc3F)on2)cs1	4%	7.9	9%	-0.2%	2.3	·	9%[15.4 µM]

Next part
SMILES	Sfp PPTase inh	Menin MLL FP FL	gsp antagonist	PINK1 expr mod	D2 ag	ClpP mod	gsp ag
O=S(=O)(c1ccc(Cl)cc1)c1snnc1-c1ccccc1	-8%	1.3	-22%	-2.3%	-8.5	-1.2%	8%
Cc1ccc(-c2nc(CS(=O)CC(=O)NCc3ccc(Cl)cc3)c(C)o2)cc1 (centres undefined)	27%	2.5	0%	4.6%	-4.6	-14%	-36%
O=C(c1cccnc1)N1CCN(C(=O)c2cccs2)CC1	16%	2.6	7%	0.6%	-2.1	1.9%	16%
CC(C)Oc1ccc(N2CC(C(=O)Nc3ccccc3F)CC2=O)cc1 (centres undefined)	11%	3.3	5%[15.4 µM]	0.5%	0.5	-1.5%	1%
N/C(=N\OC(=O)CCCc1ccccc1)c1ccccc1	2%	·	0%	4.5%	2.6	-0.3%	-43%
CCOc1ccc(CCNC(=O)COC(=O)c2ccccc2O)cc1OCC	18%	-3.3	-6%	0.1%	0.8	·	-27%
COc1cccc(CNC(=O)Cn2ccc3cc(S(=O)(=O)N4CCCCCC4)ccc32)c1OC	12%	-1.1	-28%	3.0%	3.4	-4.1%	0%
CNC(=O)COC(=O)c1cc(=O)[nH]c2ccccc12	24%	1.5	8%	6.0%[38.3 µM]	-2.0	-27%	?
CSc1ncc(Cl)c(C(=O)C(C#N)c2nc3c(C)cc(C)cc3c(=O)[nH]2)n1 (centres undefined)	-9%	1.7	?	11%[38.3 µM]	0.2	-4.7%	-72%[inhibitor]
COc1ccc(C)cc1NC(=O)C(Sc1nnc(Nc2cc(C)ccc2OC)s1)c1ccccc1 (centres undefined)	5%	3.8	-3%	0.4%	-1.0	-5.4%	8%
Cc1ccc(CNC(=O)CN(c2ccc(Cl)cc2)S(C)(=O)=O)cc1	6%	5.8	2%	-0.4%	-2.1	1.2%	11%
CN(C)CCCN(C(=O)COc1ccccc1)c1nc2c(F)cccc2s1	-7%	-8.0	16%	4.6%	1.3	2.1%	6%
O=C(CCc1ccccc1)Nc1ccc(S(=O)(=O)Nc2nccs2)cc1	24%	-1.3	-6%	0.0%	2.6	·	13%[15.4 µM]
CCn1cc(C(=O)Nc2ccc(C)cc2[N+](=O)[O-])c(C)n1	·	·	-5%	2.9%	-1.1	·	16%[15.4 µM]
Cc1ccc(S(=O)(=O)Nc2ccc(O)c(S(=O)(=O)c3ccc(C)cc3)c2)cc1	2%	-5.0	-3%	-1.3%	-2.6	-0.8%	3%[15.4 µM]

Following part
SMILES	Sfp PPTase inh	Menin MLL FP FL	gsp antagonist	PINK1 expr mod	D2 ag	ClpP mod	gsp ag
COc1ccccc1-c1oc2ccccc2c1-c1ccc2cc[nH]c2c1	·	·	?	?	4.1	3.8%	16%
COc1ccc(-n2c(=S)[nH]c3cc(C(=O)NCc4ccco4)ccc3c2=O)cc1OC	-1%&-18%	0.6&1.3	-1%&2%	2.7%&-1.1%	-3.4&5.1	0.4%	1%&-3%
CCCCCCCn1c(NC(=O)CC)nc2ccccc21	-21%	-0.1	4%	9.7%	2.0	·	13%[15.4 µM]
O=C(O)c1ccc(Nc2nc(-c3ccccc3)c3ccccc3n2)cc1	7%	-0.4	·	1.2%	0.8	·	-12%[15.4 µM]
Cc1ccc(S(=O)(=O)NCC(c2ccccc2)N2CCCCC2)cc1 (centres undefined)	11%	-0.4	0%	-1.0%	-1.8	·	-3%[15.4 µM]
Cn1c(SCC(=O)c2cc3ccccc3o2)nnc1-c1ccccc1	13µM*	-0.3	6%	0.9%	-5.2	-6.7%	?
COc1ccc(CC(=O)NCC(=O)N/N=C(/C)c2ccco2)cc1	10%	0.6	7%	1.7%	1.7	·	-34%[inhibitor]
Cc1ccc(N2CC(C(=O)Nc3ccccc3N3CCCC3)CC2=O)cc1 (centres undefined)	5%	·	0%	2.0%	-3.8	-1.8%	?
CC(C)(C)C(=O)Nc1ccc(C(=O)CN2C(=O)NC3(CCOc4ccccc43)C2=O)cc1 (centres undefined)	·	·	0%	0.6%	-1.2	-1.8%	-8%
Cc1ccc(NC(=O)C2CCCN2S(=O)(=O)c2ccc3c(c2)n(C)c(=O)c(=O)n3C)cc1C (centres undefined)	14%	1.4	-1%	1.8%&0.4%	-5.7	-21%&-4.8%	-13%
Cc1cnc(C(=O)OCC(=O)N(C(C)C)C(C)C)cn1	2%	3.0	8%	1.6%	0.7	-4.1%	5%
COc1cccc(OCc2nc3ncc(Br)cc3[nH]2)c1	0%	1.3	36%[activator]	3.6%[38.3 µM]	-3.9	0.3%	?
CCc1ccn2cc(-c3cc(-c4ccccc4)no3)nc2c1	-3%	10	?	1.0%	3.2	-5.3%	-17%
CC(=O)N1CCN(CC(=O)Nc2ccccc2C(=O)Nc2ccccc2)CC1	·	·	-8%	0.9%	-0.8	12%	-4%
Cc1cc(Cl)ccc1N(CC(=O)NCCSCc1ccco1)S(C)(=O)=O	?	-1.8	1%	0.4%	-2.5	-21%	-3%[15.4 µM]
